TRPML1 inh = qHTS for Inhibitors of the Human Mucolipin Transient Receptor Potential 1 (TRPML1); TRPML1-inducible cells, Ca2+ dye fluorescence, FDSS; hits give low values; inhibition of EC80 agonist-evoked calcium signal; activity change, negative = inhibition, % (no concentration beside the values); 0.02% of 390,000 active; AID 624415, 2012; in the data active means activity change below about -50%; inconclusive means about -30% to -50%; inactive means above about -30%;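 note: stimulus is agonist 54-4 at its EC80 concentration; % is set by controls: 0 for no effect and ±100 for the full control effect; compound concentration not given in the record; the text of the record puts the active cut at -80%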
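Tet-induced TRPML1-DL cells loaded with Ca8 no-wash calcium dye were read kinetically on FDSS. Compound addition was followed by EC80 agonist 54-4 (4 uM final); inhibition was read over 110 s.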
D2 PAM = Beta-Arrestin HTS for Positive Allosteric Modulators of the Human D2 Dopamine Receptor: Potentiators | DiscoveRx D2 beta-arrestin cells, luminescence, 90 min; 100% = 57 uM dopamine signal | potentiation, % (no concentration beside the values) | 0.23% of 360,000 active; active = potentiation of 50% or more; inconclusive = 30% to 50%; inactive = 30% or less;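 note: compound concentration not given in the record; tested on top of an EC20 dose of dopamine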
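PathHunter beta-arrestin assay in DiscoveRx D2 cells. Compounds were added with an EC20 of dopamine (50 nM final) for 90 min at 37 deg C. Luminescence was read 1 h after detection reagent, with 57 uM dopamine as the EC100 control.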
TRPML1 ag = qHTS for Agonists of the Human Mucolipin Transient Receptor Potential 1 (TRPML1) | Mucolipin-1 (Homo sapiens), Q9GZU1 | TRPML1-expressing cells, Ca2+ dye fluorescence, FDSS; host cell line not named in the record; reference of the full effect not given here | activation, % (no concentration beside the values) | 0.12% of 410,000 active | AID 624414, 2012; in the data active = activation above about 50%; inconclusive = about 30% to 50%; inactive = below about 30%; note: 0% is about no effect; the text of the record puts the active cut at 80%
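Agonist activity was taken from a 110 s kinetic Ca2+ dye read on the FDSS after pinning compounds onto TRPML1-DL cells. The cells were seeded at 1,500/well with Tet inducer, incubated about 16 h, then dye-loaded at room temperature.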
CtBP-E1A blk = qHTS Assay for Inhibitors of the CtBP/E1A Interaction. activity change, % (no concentration beside the values). CtBP / adenovirus E1A interaction (AlphaScreen). 0.49% of 340,000 active. AlphaScreen GST-E1A/His-CtBP binding, 1536-well; hits give low values; control for the full effect not named in the record. AID 651724, 2012; in the data active means activity change below about -65%; inconclusive means about -30% to -65%; inactive means above about -30%; note: % is set by controls: 0 for no effect and ±100 for the full control effect; compound concentration not given in the record
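Protein mix (5X: 125 nM each GST-E1A, His-CtBP) was incubated with pinned compound 2 h at 37 deg C in dark, in 50 mM Tris pH 8.0 buffer with 300 mM NaCl. Glutathione donor and nickel acceptor beads followed; AlphaScreen signal read after 1 h.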
Six1-Eya2 blk = qHTS Assay for Inhibitors of the Six1/Eya2 Interaction; Homeobox protein SIX1 (Homo sapiens) + Protein phosphatase EYA2 (Homo sapiens), …; AlphaScreen GST-Six1/His-Eya2 binding, biochemical; hits give low values; control for the full effect not named in the record; activity change, % (no concentration beside the values); 0.56% of 360,000 active; in the data active = activity change below about -65%; inconclusive = about -30% to -65%; inactive = above about -30%; note: % is set by controls: 0 for no effect and ±100 for the full control effect; compound concentration not given in the record
Target sequence (O00167 whole entry, looked up): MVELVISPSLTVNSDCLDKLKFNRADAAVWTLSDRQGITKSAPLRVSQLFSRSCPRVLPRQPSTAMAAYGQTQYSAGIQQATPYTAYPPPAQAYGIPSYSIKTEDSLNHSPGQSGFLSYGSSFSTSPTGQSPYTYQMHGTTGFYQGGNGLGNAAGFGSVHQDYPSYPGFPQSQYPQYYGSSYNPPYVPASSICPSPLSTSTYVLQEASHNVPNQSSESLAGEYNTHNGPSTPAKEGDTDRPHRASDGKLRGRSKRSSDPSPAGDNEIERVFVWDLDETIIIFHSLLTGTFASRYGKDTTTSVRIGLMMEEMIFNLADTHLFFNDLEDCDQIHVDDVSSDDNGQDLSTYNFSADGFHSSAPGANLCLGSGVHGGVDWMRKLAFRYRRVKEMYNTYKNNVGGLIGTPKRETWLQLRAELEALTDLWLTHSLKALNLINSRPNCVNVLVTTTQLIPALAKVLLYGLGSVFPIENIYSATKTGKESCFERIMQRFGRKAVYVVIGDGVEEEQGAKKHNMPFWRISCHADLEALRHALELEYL
Target sequence (Q15475 whole entry, looked up): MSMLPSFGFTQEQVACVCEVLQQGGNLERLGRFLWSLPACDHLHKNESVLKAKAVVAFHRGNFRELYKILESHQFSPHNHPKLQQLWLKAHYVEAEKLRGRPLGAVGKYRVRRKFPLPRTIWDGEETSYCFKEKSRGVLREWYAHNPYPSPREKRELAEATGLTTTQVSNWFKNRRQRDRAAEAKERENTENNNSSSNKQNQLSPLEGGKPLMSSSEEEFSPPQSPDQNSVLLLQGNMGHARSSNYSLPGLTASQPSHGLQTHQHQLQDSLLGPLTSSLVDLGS
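Compounds are tested against tagged Six1 and Eya2 proteins bridged by glutathione donor and nickel acceptor beads; after a one-hour incubation at 37 °C without light, AlphaScreen emission is recorded.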
TRPV1 potentiator = HTS Assay for Compounds that Act as Potentiators of the Vanilloid Receptor 1; Transient receptor potential cation channel subfamily V member 1 (Homo sapiens), Q8NER1; potentiation, % at 8.33 µM; TRPV1-expressing cells, Fluo-8 calcium influx, capsaicin EC20 potentiation; host cell line not named in the record; control for the full effect not named in the record; 0.02% of 320,000 active; active means potentiation above 80%; inconclusive means 30% to 80%; inactive means below 30%; note: 0% is about no effect
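Fluo-8 calcium influx in TRPV1-expressing cells, kinetic read (ex 480/em 520 nm). Compound added and read 3 min for agonist activity, followed by capsaicin at EC20 final and 2 min further read for enhancement.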
Starred values were filed as active, the others as inactive.

How did COC(CNC(=O)Cn1nc(Cc2ccncc2)c2ccccc2c1=O)OC do in these assays?
TRPML1 inh: -20; D2 PAM: -12; TRPML1 ag: 0.9; Six1-Eya2 blk: 3; TRPV1 potentiator: 5

How did Cc1cc(C)c(S(=O)(=O)N2CCN(C(=O)c3ccc(-n4nc(C)c(Cl)c4C)cc3)CC2)c(C)c1 do in these assays?
TRPML1 inh: -6; D2 PAM: 28; TRPML1 ag: 6.4; CtBP-E1A blk: -9; Six1-Eya2 blk: -3

Results for CCOC(=O)c1ccc(N=C2C(=S)N(c3ccc(C(=O)OCC)cc3)C(=N)N2/N=C/c2ccccc2)cc1 ?
TRPML1 inh: 9; D2 PAM: 1; TRPML1 ag: 0.6; CtBP-E1A blk: inconclusive; Six1-Eya2 blk: inconclusive; TRPV1 potentiator: -33

How did COc1ccc(S(=O)(=O)N2CCC(C(=O)NCc3cccc(OC)c3)CC2)cc1 do in these assays?
TRPML1 inh: 1; D2 PAM: -2; TRPML1 ag: 0.2; CtBP-E1A blk: 0; Six1-Eya2 blk: 0; TRPV1 potentiator: 1

What do the screens show for `CCOc1ccc(C(=O)Nc2ccccc2C(=O)O)cc1`?
TRPML1 inh: 13; D2 PAM: 8; TRPML1 ag: 3.1; CtBP-E1A blk: -3; Six1-Eya2 blk: -1; TRPV1 potentiator: 14

How did Cc1ccc(CN2C(=O)CCC2C(=O)NC2CCCC2)cc1 (configuration not stated) do in these assays?
TRPML1 inh: -5; D2 PAM: inconclusive; TRPML1 ag: -1.2; CtBP-E1A blk: 3; Six1-Eya2 blk: 3; TRPV1 potentiator: -24

What do the screens show for `COc1ccc(S(=O)(=O)Nc2cc(S(=O)(=O)N3CCOCC3)ccc2OC)cc1`?
TRPML1 inh: -3; D2 PAM: 1; TRPML1 ag: -0.5; Six1-Eya2 blk: -1

What do the screens show for `C(=N\Nc1ccc2nncn2n1)/c1ccccn1`?
TRPML1 inh: 30; D2 PAM: -2; TRPML1 ag: 0.5; CtBP-E1A blk: inconclusive; Six1-Eya2 blk: inconclusive; TRPV1 potentiator: 0

How did Cc1ccc(-n2nnnc2SCC(=O)Nc2cccnc2Cl)cc1 do in these assays?
TRPML1 inh: 11; D2 PAM: -18; TRPML1 ag: 1.4; CtBP-E1A blk: 4; Six1-Eya2 blk: 12; TRPV1 potentiator: -40

How did COCCn1nnnc1C(c1ccc(C(F)(F)F)cc1)N1CCOCC1 (configuration not stated) do in these assays?
TRPML1 inh: 5; D2 PAM: -2; TRPML1 ag: -0.5; CtBP-E1A blk: 2; Six1-Eya2 blk: 3; TRPV1 potentiator: -2

How did CSc1nc2ccccc2n1Cc1cccc([N+](=O)[O-])c1 do in these assays?
TRPML1 inh: 40; D2 PAM: -14; TRPML1 ag: 1.8; CtBP-E1A blk: -4; Six1-Eya2 blk: -11; TRPV1 potentiator: 20

Results for CCOCCCn1c(=NC(=O)c2cccs2)c(C#N)cc2c(=O)n3ccccc3nc21 ?
TRPML1 inh: 4; D2 PAM: 1; TRPML1 ag: -0.1; CtBP-E1A blk: -3; Six1-Eya2 blk: 4; TRPV1 potentiator: -1

What do the screens show for `Cc1ccccc1N/N=C/c1sc(=O)n(Cc2cccc(C(=O)O)c2)c1Cl`?
TRPML1 inh: -9; D2 PAM: 19; TRPML1 ag: 0.4; CtBP-E1A blk: -8; Six1-Eya2 blk: -3; TRPV1 potentiator: 13

How did COc1cccc(-c2c(-c3cc(OC)cc(OC)c3)n(C)c3ccc(-c4cnc(N5CCOCC5)nc4)cc23)c1 do in these assays?
TRPML1 inh: -8; D2 PAM: 1; TRPML1 ag: -0.6; CtBP-E1A blk: 2; Six1-Eya2 blk: -4

What do the screens show for `Cc1c(Cl)cccc1NC(=O)CCC(=O)c1cccs1`?
TRPML1 inh: -3; D2 PAM: -4; TRPML1 ag: -0.5; Six1-Eya2 blk: 8; TRPV1 potentiator: -18

Results for COc1ccc(-c2ccccc2NC(=O)C2CCCN(Cc3ccco3)C2)cc1 (configuration not stated) ?
TRPML1 inh: 22; D2 PAM: -25; TRPML1 ag: -0.1; CtBP-E1A blk: -1; Six1-Eya2 blk: -2; TRPV1 potentiator: 10

What do the screens show for `COc1ccc(OC)c(NC(=O)C(=O)/C=C(\O)c2cc(OC)ccc2OC)c1`?
TRPML1 inh: 10; D2 PAM: -2; TRPML1 ag: -0.3; CtBP-E1A blk: -8; Six1-Eya2 blk: -8; TRPV1 potentiator: 10

Results for CCc1nnc(NS(=O)(=O)c2ccc(NC(=O)C(c3ccccc3)c3ccccc3)cc2)s1 ?
TRPML1 inh: 28; D2 PAM: -9; TRPML1 ag: -0.7; CtBP-E1A blk: 0; Six1-Eya2 blk: 1

Results for O=C(O)CCSc1nc2ccc(Br)cc2[nH]1 ?
TRPML1 inh: 1; D2 PAM: -12; TRPML1 ag: -0.4; CtBP-E1A blk: -3; Six1-Eya2 blk: -4; TRPV1 potentiator: 27

How did COc1cccc(C(=O)NC2CC3CCCC(C2)N3Cc2ccc(C)cc2)c1 (configuration not stated) do in these assays?
D2 PAM: -82; Six1-Eya2 blk: 3; TRPV1 potentiator: -16

Results for COc1ccc(C(=O)Nc2ccc(S(=O)(=O)Nc3nccc(C)n3)cc2)cc1[N+](=O)[O-] ?
TRPML1 inh: 27; D2 PAM: -2; TRPML1 ag: 0.2; Six1-Eya2 blk: 1; TRPV1 potentiator: -2

What do the screens show for `O=C(OCC(=O)c1c[nH]c2ccccc12)c1cc(Br)ccc1O`?
TRPML1 inh: 14; D2 PAM: 2; TRPML1 ag: 0.0; CtBP-E1A blk: 2; Six1-Eya2 blk: 1; TRPV1 potentiator: 16

Results for COC(=O)c1ccc(COc2ncnc3ccccc23)o1 ?
TRPML1 inh: 0; D2 PAM: 1; TRPML1 ag: -0.5; CtBP-E1A blk: 0; Six1-Eya2 blk: -2; TRPV1 potentiator: -1

How did COc1ccc(NC(=O)CC(C(=O)O)N2CCCCC2)cc1 (configuration not stated) do in these assays?
TRPML1 inh: -6; D2 PAM: -3; TRPML1 ag: 0.5; CtBP-E1A blk: 4; Six1-Eya2 blk: 5; TRPV1 potentiator: 8

How did NC(Cc1ccccc1)C(=O)N1CCCCC1 (configuration not stated) do in these assays?
TRPML1 inh: 0; D2 PAM: 1; TRPML1 ag: 0.3; CtBP-E1A blk: 3; Six1-Eya2 blk: 5; TRPV1 potentiator: -8

What do the screens show for `O=C(c1cc2cc(Cl)ccc2oc1=O)N1CCN(c2ccccn2)CC1`?
TRPML1 inh: -14; D2 PAM: -5; TRPML1 ag: -0.1; CtBP-E1A blk: 13; Six1-Eya2 blk: 5; TRPV1 potentiator: 7

Results for COc1ccc(-c2cc(C(F)(F)F)n3nc(C(=O)O)cc3n2)cc1OC ?
TRPML1 inh: -1; D2 PAM: -2; TRPML1 ag: -0.5; CtBP-E1A blk: inconclusive; Six1-Eya2 blk: -70*; TRPV1 potentiator: 0

How did Cc1[nH]c(C)c(S(=O)(=O)N2CCCCC2)c1C(=O)N1CCCCC1 do in these assays?
TRPML1 inh: -16; D2 PAM: -3; TRPML1 ag: -0.5; CtBP-E1A blk: 7; Six1-Eya2 blk: 3; TRPV1 potentiator: 1

What do the screens show for `O=C(c1ccc(S(=O)(=O)N2CCCC2)cc1)N1CCN(S(=O)(=O)c2cccc(F)c2)CC1`?
TRPML1 inh: -1; D2 PAM: -7; TRPML1 ag: -0.7; CtBP-E1A blk: 15; Six1-Eya2 blk: 4; TRPV1 potentiator: -16

What do the screens show for `CN(C)c1ccc(N=Nc2ccc3ncccc3c2)cc1`?
TRPML1 inh: -4; D2 PAM: -2; TRPML1 ag: 0.9; CtBP-E1A blk: -29; Six1-Eya2 blk: inconclusive

Arranged by SMILES length (largest number first): part of the list above
Results for COc1ccc(C(=O)Nc2ccc(S(=O)(=O)Nc3nccc(C)n3)cc2)cc1[N+](=O)[O-] ?
TRPML1 inh: 27; D2 PAM: -2; TRPML1 ag: 0.2; Six1-Eya2 blk: 1; TRPV1 potentiator: -2

How did Cc1[nH]c(C)c(S(=O)(=O)N2CCCCC2)c1C(=O)N1CCCCC1 do in these assays?
TRPML1 inh: -16; D2 PAM: -3; TRPML1 ag: -0.5; CtBP-E1A blk: 7; Six1-Eya2 blk: 3; TRPV1 potentiator: 1

What do the screens show for `O=C(OCC(=O)c1c[nH]c2ccccc12)c1cc(Br)ccc1O`?
TRPML1 inh: 14; D2 PAM: 2; TRPML1 ag: 0.0; CtBP-E1A blk: 2; Six1-Eya2 blk: 1; TRPV1 potentiator: 16

How did COc1ccc(NC(=O)CC(C(=O)O)N2CCCCC2)cc1 (configuration not stated) do in these assays?
TRPML1 inh: -6; D2 PAM: -3; TRPML1 ag: 0.5; CtBP-E1A blk: 4; Six1-Eya2 blk: 5; TRPV1 potentiator: 8

Results for COC(=O)c1ccc(COc2ncnc3ccccc23)o1 ?
TRPML1 inh: 0; D2 PAM: 1; TRPML1 ag: -0.5; CtBP-E1A blk: 0; Six1-Eya2 blk: -2; TRPV1 potentiator: -1

How did NC(Cc1ccccc1)C(=O)N1CCCCC1 (configuration not stated) do in these assays?
TRPML1 inh: 0; D2 PAM: 1; TRPML1 ag: 0.3; CtBP-E1A blk: 3; Six1-Eya2 blk: 5; TRPV1 potentiator: -8

Continued:
What do the screens show for `O=C(CCn1c(=S)oc2ccccc21)N1CCCCC1`?
TRPML1 inh: 9; D2 PAM: -2; TRPML1 ag: -0.7; CtBP-E1A blk: 1; Six1-Eya2 blk: 4; TRPV1 potentiator: -4

What do the screens show for `COc1ccnc(Oc2ccc(Cl)cc2)c1C#N`?
TRPML1 inh: -2; D2 PAM: 2; TRPML1 ag: -0.4; CtBP-E1A blk: 8; Six1-Eya2 blk: 8; TRPV1 potentiator: 8

What do the screens show for `CC1CCCC(NC(=O)C2CCC(CNc3c(N4CCCCC4)c(=O)c3=O)CC2)C1C` (configuration not stated)?
TRPML1 inh: 8; D2 PAM: -4; TRPML1 ag: -0.6; CtBP-E1A blk: -1; Six1-Eya2 blk: 8; TRPV1 potentiator: 18

Results for COCCCNC(=O)c1cc2c(=O)n3cccc(C)c3nc2n(C(C)C)c1=N ?
TRPML1 inh: -4; D2 PAM: 22; TRPML1 ag: -0.9; CtBP-E1A blk: 2; Six1-Eya2 blk: -3; TRPV1 potentiator: inconclusive

How did O=C(c1ccc2c(c1)OCO2)N1CCC(Cc2ccccc2)CC1 do in these assays?
TRPML1 inh: -5; D2 PAM: -6; TRPML1 ag: -0.1; CtBP-E1A blk: -2; Six1-Eya2 blk: 9; TRPV1 potentiator: -30

What do the screens show for `CCCn1c(C)nc2cc(Cl)c(N3CCN(c4nc(-c5ccc(C)cc5)cs4)CC3)cc21`?
TRPML1 inh: 3; D2 PAM: -10; TRPML1 ag: -0.3; CtBP-E1A blk: -5; Six1-Eya2 blk: -10; TRPV1 potentiator: -1
